Sa RN4220 lethal – growth inhibition of S. aureus RN4220, primary screen, OD600; AID 1259311, 2017; 16 h; inhibition, % (concentration not given with the values); 0.33% of 330,000 active;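 active = z-score of -3 or lower and OD600 up to 0.18 on both plates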;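 note: plate controls were untreated cells for no effect and reference antibiotic for full effect; stock transfer was 100 nL into about 80 µL; one replicate is shown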
BJeLR lethal – MLPCN primary cell-based screen for lethality selective to Ras in HRASV12 cells; inhibition, % (no concentration beside the values); 0.17% of 300,000 active; BJeLR (HRASV12) viability, CellTiter-Glo ATP luminescence, 48 h; reference of the scale not given here;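 active = replicate mean above 50%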;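 note: 50 nL library stock added to about 25 µL; numbers are from one replicate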
ugtP null kill – growth inhibition of ugtP-null S. aureus, primary screen, RN4220 ugtP deletion, OD600; 0.54% of 330,000 active; 16 h; some inactives read as strong as hits; growth inhibition, % (test concentration not listed);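 active = z-score under -3 and OD600 up to 0.15 on both plates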;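 note: plate controls were untreated wells for no effect and antibiotic for full effect; wells of about 80 µL received 100 nL stock; the first replicate is given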
Bead autofluor – counter-screen for toxin protease inhibitors: compound fluorescence; compound autofluorescence counterscreen, microsphere flow cytometry; hits give high values; 3.1% of 360,000 active; AID 624483; fluorescence intensity (test concentration not listed);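 active = at least 3 SD above the mean of all compounds, about 16000 in these data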;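 note: 100 nL of 1 mM stock went into each well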
PrP UTR inh – inhibition of PrP 5' UTR reporter expression; cell-based PrP 5' UTR mRNA reporter, plate reader; inhibition, % (test concentration not listed); 0.35% of 340,000 active; AID 488862, 2010;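 active = every replicate at 50% or more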;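 note: 0 = median of the neutral control wells; tested in H4 reporter cells; numbers are from one replicate; inactives centre near -14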
Mtb hypoxia inh – PubChem AID 1159583; M. tuberculosis hypoxia-regulated fluorescent reporter, fluorescence; fluorescence inhibition, % (concentration not given with the values); 0.1% of 300,000 active;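 active = 35 to 45% if threefold the growth effect, above 45% if 1.5-fold the growth effect; inactive = the rest, general growth blockers included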;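 note: wells of about 50 µL received 100 nL stock; 0% = vehicle wells and 100% = reference inhibitor wells; whole bacteria with a GFP reporter of the hypoxia response; strong numbers were not always called active; many hits fall short of the cut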
Mtb hypoxia inh growth – further read-out of Mtb hypoxia inh, marked with its call; growth inhibition, %; measured here: M. tuberculosis growth (absorbance);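 0% = vehicle and 100% = reference antibiotic; read after six days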
The depositor's hits bear a star; . = not tested or not shown.

SMILES	Sa RN4220 lethal	BJeLR lethal	ugtP null kill	Bead autofluor	PrP UTR inh	Mtb hypoxia inh	Mtb hypoxia inh growth
COc1ccc(-c2c3c(=O)n(C)c(=O)n(C)c3cn2-c2ccc(O)cc2)cc1	-0.2	-12	10	5770	-9	16	3
COc1ccc(-n2c(Cc3cccn3C)nnc2SCC(N)=O)cc1	4.8	-14	8	5492	-125	.	.
CC(=NNC(=O)c1cccnc1)c1cccc([N+](=O)[O-])c1	4.7	.	8	.	.	7	-1
COc1ccc(C(CNC(=O)COc2ccccc2C)N2CCCCC2)cc1 (centres undefined)	2.9	.	-1	6802	-2	3	2
CCOC(=O)Oc1ccc(/C=C2\N=C(C)OC2=O)cc1	3.2	-8	2	3710	-7	4	14
O=C(Nc1ccccc1)c1ccc(=O)n(Cc2cccc(Cl)c2)c1	-0.2	1	0	3409	-9	3	-7
O=C(Cc1ccc(Cl)cc1)NNC(=S)NC(=O)c1cccs1	40	-17	8	4416	-25	0	-1
O=C1NC(Cc2c[nH]c3ccccc23)C(=O)N1CCOc1ccc(F)cc1 (centres undefined)	5.5	-5	-6	3231	-10	7	8
COc1cccc(C2Nc3ccccc3NC3=C2C(=O)CC(C)(C)C3)c1 (centres undefined)	1.8	-1	3	3630	-38	-1	8
COc1cc(OC)c(NC(=O)C2CC(=O)N(c3ccc4c(c3)OCCO4)C2)cc1Cl (centres undefined)	-0.8	-6	0	.	-13	3	0
Cc1nc2cccnc2nc1C	-0.3	-1	0	2856	-9	7	-1
O=C(O)c1cc2nc3c(c(C(F)(F)F)n2n1)CCCC3	6.4	5	9	3350	-22	2	6
Cc1[nH]c2ccccc2c1C=NNc1nc(N2CCCCC2)nc(N2CCCCC2)n1	3.6	.	-4	.	.	-3	5
Cc1occc1C(=O)NNC(=O)Nc1ccc([N+](=O)[O-])cc1	5.5	1	7	4215	-6	16	11
Cc1cc(NC(=O)CSc2ccnc(=O)[nH]2)no1	4.4	-4	10	.	-5	0	-10
CCC1(C)NC(=O)N(CC(=O)Nc2sc3c(c2C(N)=O)CCC3)C1=O (centres undefined)	1.4	-1	-2	4033	0	3	7
CCC(C)NC(=O)c1ccccc1NC(=O)CN(c1ccc(OC)cc1)S(C)(=O)=O (centres undefined)	0.4	0	0	23469*	-9	6	5
CCCOc1cccc(C(=O)N2CCN(C(=O)C3CCCO3)CC2)c1 (centres undefined)	3.6	9	13	5424	-21	9	1
COc1ccc(-c2nn(Cc3ccccc3)cc2C(=O)N2CCN(c3ncccn3)CC2)cc1	0.3	.	-2	3519	-1	7	6
COc1ccc(NS(=O)(=O)c2ccc(O)c(NC(=O)c3cc4c(C)nn(-c5ccc(F)cc5)c4s3)c2)cc1	83	-7	84*	2536	-11	4	5

Next part (3 carried over from the part before).
SMILES	Sa RN4220 lethal	BJeLR lethal	ugtP null kill	Bead autofluor	PrP UTR inh	Mtb hypoxia inh	Mtb hypoxia inh growth
CCCOc1cccc(C(=O)N2CCN(C(=O)C3CCCO3)CC2)c1 (centres undefined)	3.6	9	13	5424	-21	9	1
COc1ccc(-c2nn(Cc3ccccc3)cc2C(=O)N2CCN(c3ncccn3)CC2)cc1	0.3	.	-2	3519	-1	7	6
COc1ccc(NS(=O)(=O)c2ccc(O)c(NC(=O)c3cc4c(C)nn(-c5ccc(F)cc5)c4s3)c2)cc1	83	-7	84*	2536	-11	4	5
O=C(/C=C/Nc1cccc(O)c1)c1ccccc1	1.7	0	-1	14038	-25	-5	-10
CN(C)C(=O)COC(=O)c1ccccc1Sc1ccccc1C#N	-2.9	-14	-2	3885	-17	-2	9
O=C(c1cccs1)N1CCC(Cc2ccccc2)CC1	7.7	-4	10	2780	-13	23	28
Cc1cc(C)n(CCNC(=O)c2cc(COc3c(F)cccc3F)on2)n1	2.5	.	1	3368	40	9	-2
CCCC(=O)NNc1c2ccccc2nc2ccccc12	8.2	3	-5	2027	-13	-7	6
COc1ccccc1N1C(=O)c2cccc3c(N(C)CCO)ccc(c23)C1=O	.	-7	.	3294	-12	.	.
COc1cc(OC)cc(C(=O)NCCc2ccc(OC)c(OC)c2)c1	3.4	-1	12	.	.	9	-4
COCCn1c(SCC(=O)Nc2ccc3c(c2)OCCO3)nnc1-c1c[nH]c2ccccc12	-0.8	.	3	22982*	-28	5	3
O=C(CCCCn1c(=S)[nH]c2ccsc2c1=O)NCc1ccco1	7.4	-5	6	16657*	-21	8	9
C=CCNc1nc(C(=O)OCC)nc2ccccc12	4.7	0	5	1982	-22	6	9
Cc1cc(C(=O)Nc2ccccc2)c2ccccc2n1	7.8	4	7	3543	-25	6	11
Cc1[nH]n(-c2ccccc2)c(=O)c1C=Nc1nn[nH]n1	3.4	.	4	.	.	-13	-14
COc1cc(C(=O)NC(=S)NNC(=O)c2cnccn2)cc(OC)c1OC	20	6	-1	10349	-21	9	2
S=C(Nc1ccccc1)N1N=CCC1c1ccccc1 (centres undefined)	2.6	-1	6	10486	-62	9	3
COc1cccc(-c2nc(SCC(=O)Nc3nc(-c4ccccc4)c(C)s3)[nH]c(=O)c2C#N)c1	-5.9	4	-9	4994	-3	-6	0
COc1cc(C2NCC(c3ccc(Cl)cc3Cl)c3c2[nH]c2ccccc32)cc(OC)c1OC (centres undefined)	-2.7	4	-17	9632	-17	6	17
COc1ccccc1Nc1ncc(C(=O)N2CCC(C(N)=O)CC2)c2ccccc12	3.2	.	4	6855	-16	-3	-1
Cc1ccc(S(=O)(=O)Nc2nc3ccccc3nc2NCC2CCCO2)cc1 (centres undefined)	10	-5	-6	5128	-26	15	2
CCOc1ccc(-n2c(O)c(C=Nc3ccc(NC(C)=O)cc3)c(=O)[nH]c2=O)cc1	3.5	-5	7	5846	-18	2	-3
CCN(CC)S(=O)(=O)c1cccc(C(=O)N[C@H](C(=O)NC2=NCCS2)C(C)C)c1	5.1	.	3	3769	2	9	4
O=C(CCCCC(=O)NCc1cccs1)NCc1cccs1	4.9	-3	8	8657	-27	8	9
COc1cc(NC(=O)c2ccc(Cl)cc2Cl)ccc1-c1cc2ccccc2oc1=O	4.5	-10	2	9800	-18	-3	-7
N#C/C(=C\c1ccc(-c2ccccc2Cl)o1)C(=O)Nc1nc2ccccc2s1	4.3	-8	-4	2286	-21	4	8
CNS(=O)(=O)c1ccc(NC(=O)c2cc(-c3ccncc3)nc3ccc(Cl)cc23)cc1	2.9	2	-8	5310	4	2	7
O=C(NCc1ccc2c(c1)OCO2)C(=O)NC1CCCCC1	2.3	13	-2	2768	-8	.	.
Cc1ccc(S(=O)(=O)Nn2cnnc2)cc1	4.2	4	5	4248	-20	-2	2
COc1ccc(/C(C)=N/NC(=O)CNC(=O)c2ccncc2)cc1	.	11	.	4807	-11	.	.
CC1CCN(c2nc(-c3cccnc3)nc3scc(-c4ccccc4)c23)CC1	1.5	-5	-10	2700	-5	10	4
COc1ccc(CNC(=O)C(CCSC)NC(=O)c2ccco2)cc1 (centres undefined)	-0.2	-2	-2	4375	0	.	.
Cc1nn2c(NCCOCCO)c3c(nc2c1-c1ccccc1)CCC3	4.6	-6	12	3782	-12	18	6
O=C(c1ccc2c(=O)n(-c3ccccc3)c(=S)[nH]c2c1)N1CCCCC1	5.8	-4	3	6289	-16	7	2
O=C(NCc1ccco1)C1CC(c2ccccc2C(F)(F)F)=NO1 (centres undefined)	1.9	11	4	3703	-20	11	5
COc1cccc(OCC(O)CNC(C)c2ccccc2)c1 (centres undefined)	1.3	1	3	4142	-3	-2	-6
Cc1noc(C)c1CCC(=O)N1CCCC(N2CCN(c3ccc(F)cc3)CC2)C1 (centres undefined)	7.8	-9	5	5281	-4	6	-10
O=C(O)[C@H](CO)Nc1ncnc2sc3c(c12)CCC3	15	0	21	2592	-6	9	5
COc1cccc(-n2cnc3sc4c(c3c2=O)CCC4)c1	9.7	-8	11	4339	-27	-6	5
COc1cc(-c2ccc3c(=O)c4ccccc4n(C)c3c2)cc(OC)c1OC	.	-7	.	4044	-3	.	.
CN(C)S(=O)(=O)c1cccc(COC(=O)c2ccc3c(c2)OCO3)c1	15	1	6	3263	-17	11	10
Cc1ccc(C)c(SCC(=O)NC(=O)Nc2ccc3c(c2)OCCO3)c1	6.0	5	-1	2602	-10	2	1
CN(CC(=O)Nc1nc2ccc(F)cc2s1)S(=O)(=O)c1ccc(Cl)cc1	-12	7	-14	6030	-24	3	5
Cc1ccc(N/C=C/C(=O)c2cccs2)cc1	3.2	2	0	4400	50	-1	-2
CCOc1cc(N2CCOCC2)c(OCC)cc1NC(=O)CN1CCSC1=O	-0.3	.	5	.	-13	7	4
C=CCn1cnc2c(nnn2Cc2ccc(F)cc2)c1=O	3.6	-8	7	5869	-34	21	25
Cc1ccc(NC(=O)c2ccc(NS(=O)(=O)c3c(C)noc3C)cc2)cc1C	5.5	0	-9	4836	-27	1	4
COCC(N)(c1ccccc1)c1nc2ccccc2n1C (centres undefined)	4.0	-4	6	10589	-21	3	-1
Cc1ccc(NC(=O)CN(C)C2CCCCC2)cc1Cl	3.0	4	6	3880	-13	.	.
O=C1CC(N2CCN(c3ccc(C(=O)c4ccc(F)cc4)cc3)CC2)C(=O)N1 (centres undefined)	0.0	2	-1	4204	-27	.	.
CCC(C)Sc1nnc(CNS(=O)(=O)c2ccc(F)cc2)n1C (centres undefined)	1.9	6	3	5876	-10	-10	3
COCCCNC(=O)c1ccc(-c2nc3ccccc3nc2-c2ccccc2)cc1	4.1	-17	16	6662	.	6	7
O=C(COC(=O)c1c2c(nc3ccccc13)/C(=C/c1ccco1)CC2)NC1CCCC1	6.6	-6	-2	2606	-27	-2	-1
COc1ccc(C2NC(=O)c3sc(=S)n(-c4ccccc4)c3N2)cc1 (centres undefined)	7.1	-8	0	2926	-33	-4	9
COc1ccc2[nH]c(=O)c(CN(Cc3cccs3)Cc3nnnn3Cc3ccccc3)cc2c1	0.8	-5	-12	11031	-15	7	12
O=C(NNC(=O)C1CCN(Cc2ccc(Cl)c(Cl)c2)CC1)c1cccs1	0.4	-3	0	4177	-4	9	2
Cc1onc(-c2ccccc2Cl)c1C(=O)Nc1cccc(S(=O)(=O)NC2=NCCC2)c1	2.7	11	6	5814	-15	11	1
CC(C)c1nnc(NC(=O)c2cccc(NC(=O)C(F)(F)F)c2)s1	2.3	-8	-2	4659	-55	3	6
COc1ccccc1/C=C/C(=O)Nc1ccc(N2CCOCC2)cc1	2.9	-10	0	4428	-20	17	1
CCn1ncc([N+](=O)[O-])c1C(=O)n1nc(C)cc1C	1.6	-2	-8	1990	-10	1	1
COc1ccccc1C(=O)NCCC(=O)N1CCCCC1	1.7	6	1	4868	-7	11	-2
O=C(Nc1ccc(-c2nc3cccnc3s2)cc1)c1ccc(Cl)nc1	6.2	2	10	3969	-52	15	14
Cc1nn(C(=O)c2ccco2)c(C)c1Sc1ccc(Cl)cc1	-5.8	12	-3	2442	-1	-9	-10

Part of the list above with just ugtP null kill.
mol | ugtP null kill
Cc1ccc(N/C=C/C(=O)c2cccs2)cc1 | 0
CCOc1cc(N2CCOCC2)c(OCC)cc1NC(=O)CN1CCSC1=O | 5

Of the compounds above, 3 contain a nitro group on carbon:
SMILES	Sa RN4220 lethal	BJeLR lethal	ugtP null kill	Bead autofluor	PrP UTR inh	Mtb hypoxia inh	Mtb hypoxia inh growth
CC(=NNC(=O)c1cccnc1)c1cccc([N+](=O)[O-])c1	4.7	.	8	.	.	7	-1
Cc1occc1C(=O)NNC(=O)Nc1ccc([N+](=O)[O-])cc1	5.5	1	7	4215	-6	16	11
CCn1ncc([N+](=O)[O-])c1C(=O)n1nc(C)cc1C	1.6	-2	-8	1990	-10	1	1

Further structures:
SMILES	Sa RN4220 lethal	BJeLR lethal	ugtP null kill	Bead autofluor	PrP UTR inh	Mtb hypoxia inh	Mtb hypoxia inh growth
CC(=O)N1CCN(Cc2ccc(Br)s2)CC1	2.1	-10	-3	22754*	-5	7	3
COc1ccc(C2C3=C(N=C4SCC(=O)N42)c2ccccc2CC3)cc1 (centres undefined)	-8.9	-10	9	3169	-17	2	7
CCOC(=O)N1CCN(C(=S)NC)CC1	1.4	6	3	3344	-14	16	8
CCCCN(C(=O)C1CC(=O)N(CCc2ccc(OC)c(OC)c2)C1)c1c(N)n(CC(C)C)c(=O)[nH]c1=O (centres undefined)	-1.8	.	4	3032	-15	4	5
Brc1ccc(-c2n(-c3ccccn3)c3ccccc3[n+]2-c2ccccn2)cc1	2.2	7	7	4063	-12	-13	-2

Assay outcomes (PubChem BioAssay)
